Sa growth inh – inhibitors of Staphylococcus aureus growth at 42 °C; 170,000 compounds, 0.53% hits; AID 720641; S. aureus RN4220 growth, OD600, 20 h; hits give low values; relative growth, % (test concentration not listed);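 active = growth at 42 °C up to 50% and 20 or more points under that at 30 °C, or under 10% at both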;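 also: 300 nL library stock went into each well; scaled to the means of positive and negative controls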
GIV Gai3 FP – GIV-Galpha-i interaction inhibition; P08753; Galpha-i3/FITC-GIV peptide fluorescence polarization, 90 min; hits give low values; scaled: aluminum fluoride 0%, vehicle 100%; percent of control (FP), % (concentration not given with the values); 210,000 compounds, 0.42% hits;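 active = replicate mean at 85% of control or lower, very high polarization wells dropped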;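 also: wells of about 15 µL received 100 nL stock; the first replicate is given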
Target sequence (P08753 whole entry, looked up): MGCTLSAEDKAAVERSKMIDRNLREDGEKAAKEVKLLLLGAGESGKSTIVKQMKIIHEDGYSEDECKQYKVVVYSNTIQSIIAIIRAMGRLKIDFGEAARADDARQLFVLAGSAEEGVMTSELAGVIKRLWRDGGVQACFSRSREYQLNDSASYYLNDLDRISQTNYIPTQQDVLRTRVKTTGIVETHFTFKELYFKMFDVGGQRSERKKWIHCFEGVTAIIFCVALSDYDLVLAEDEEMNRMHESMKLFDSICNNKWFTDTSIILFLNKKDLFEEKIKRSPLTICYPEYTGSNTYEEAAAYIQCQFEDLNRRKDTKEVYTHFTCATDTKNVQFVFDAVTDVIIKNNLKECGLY
HCMV NEC inh – disrupts HCMV UL50-UL53 complex binding. HTRF UL50-UL53 interaction, normalized percent inhibition. inhibition, % (no concentration beside the values). 190,000 compounds, 0.15% hits. AID 1918969;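 active = both replicates at 50% or more, plus weaker picks with an unusually low signal ratio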;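 also: stock transfer was 100 nL into about 20 µL; 0% = negative control wells and 100% = wells with untagged competitor protein; inactives centre near -12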
Sa growth inh second temp – also measured in Sa growth inh; calls as there; relative growth, %; measured here: growth at 30 °C;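 optical density after 20 h as mean of two plates; 100% = untreated growth and lower means inhibition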
Active calls of the source: *; · = not tested or not shown; & = joins results of further samples. An unsorted share of the library. About 0.8% of those tested had a hit in this group.

SMILES	Sa growth inh	Sa growth inh second temp	GIV Gai3 FP	HCMV NEC inh
CN(C)S(=O)(=O)c1cccc(C(=O)NCC2COc3ccccc3O2)c1 (stereo not drawn)	93	96	·	-5
O=C(Nc1ccccc1)Nc1nncs1	87	77	106	23
CC(C)(C)c1ccc(/C(N)=N/O)cc1	95	79	98	-40
COc1ccc(OC(=O)c2nc(SCc3ccccc3C)ncc2Cl)cc1	99	99	101	-2
Nc1csc(C(F)(F)F)c1-c1ccccc1	110	100	102	-9
CCC1(CC)Cc2ccccc2C(CC(=O)N2CCOCC2)=N1	125	92	·	-2
O=C(Cn1c(=O)n(Cc2ccc3c(c2)OCO3)c(=O)c2oc3ccccc3c21)Nc1ccc(F)cc1	102	105	111	·
CCOC(=O)CSc1nc2sc3c(c2c(=O)n1CC)CCCC3	100	95	103	-17
CC1Cc2ccccc2N1C(=O)CC(C#N)(C#N)CC(=O)N1c2ccccc2CC1C (stereo not drawn)	63	83	·	-17
COc1ccc(C2=NOC(C(=O)N(C)Cc3ccccc3)C2)cc1 (stereo not drawn)	110	93	106	·
O=C(O)c1cccc(-c2ccc3c(c2)OCO3)c1	114	108	96	-3
CSc1nc2ccc(Br)cc2[nH]1	73	74	99	-5
CC1=C(C(=O)Nc2ccccc2)C(c2ccccc2)n2c(s/c(=C/c3ccc4c(c3)OCO4)c2=O)=N1 (stereo not drawn)	·	·	101	-9
COc1ccc(C(Nc2nc(C)cc(C)n2)c2cc(C)sc2NC(=O)c2ccccc2)c(OC)c1 (stereo not drawn)	·	·	109	14
CCC(=O)N1CCCC1c1nc2ccccc2n1CCCCOc1ccc(OC)cc1 (stereo not drawn)	·	·	105	1
Cn1ccc2cc(S(=O)(=O)N3CCN(C(=O)Nc4cccc(Cl)c4)CC3)ccc21	·	·	97	9
O=C(c1ccc2c(c1)sc1nc(-c3ccccc3)cn12)N1CCCC1	98	43	105	·
O=C(CN1C(C(=O)c2ccccc2)=C(N2CCOCC2)c2ccccc2S1(=O)=O)c1ccccc1	44	47	108	·
CN(C)c1ccc(/C=C2\CCC/C(=C\c3ccccc3)C2=O)cc1	96	93	155	·
CCOC(=O)c1cnc2nc(NCc3ccc(OCC)cc3)[nH]n2c1=O	121	92	106	-10
COc1ccc(Oc2nc(-c3ccccc3)ns2)cc1	100	101	102	-18
Cc1cnc(NC(=O)CC(C)c2ccccc2)s1 (stereo not drawn)	113	80	·	-6
CC(OC(=O)C1CC2CCCC(C1)C2=O)C(=O)N1c2ccccc2CC1C (stereo not drawn)	98	85	·	-29
CCOC(=O)Cn1c(=O)n(C2CCCCC2)c2nc(-c3cccc(C)c3)nc(C(N)=O)c21	98	96	97	·
CC(=O)N1N=C(c2c(C)coc2C)CC1c1ccc(Cl)cc1Cl (stereo not drawn)	87	95	·	-29
N#Cc1c(OC(=O)c2ccco2)ccc(OC(=O)c2ccco2)c1C#N	84	83	106	-8
O=C(CN1C(=O)C2C3C=CC(C3)C2C1=O)Nc1nnc(C(F)(F)F)s1 (stereo not drawn)	110	90	·	-22
CCn1cc(C(=O)O)c(=O)c2cc(F)c(F)cc21	85	91	102	·
CCn1cc(C(=O)NCc2ccccc2)c(=O)c2cc(S(=O)(=O)N3CCc4ccccc4C3)ccc21	93	91	105	-26
Cc1nc(C)c(-c2csc(Nc3ccc(O)c(C(=O)O)c3)n2)s1	87	80	96	-65
Cc1ccc2c(N3CC4CCC(CC4)C3)cc(C(F)(F)F)nc2c1	107	85	101	-19
C=CCSc1nnc(-c2oc3nc(-c4ccccc4)cc(-c4ccccc4)c3c2N)n1C	85	53	106	-48
CCCOc1ccc(CNC(=O)Cn2cc3c(n2)-c2c(oc(C(=O)N4CCOCC4)c2C)CC3)cc1	102	93	109	·
Cc1ccc(-n2c(SCC(N)=O)nc3sc4c(c3c2=O)CCCCC4)cc1	·	·	107	-18
CCOC(=O)C1C(c2ccc(Br)cc2)C(C(=O)OCC)C(O)(C(F)(F)F)NC1(O)C(F)(F)F (stereo not drawn)	109	100	104	4
CN1/C(=C/C(=S)C(C)(C)C)Sc2ccccc21	70	99	·	-5
Cc1oc2ncnc(N3CCCCC3)c2c1C(=O)N1CCC(C(N)=O)(N2CCCCC2)CC1	·	·	102	-4
Cc1ccc(C)c(NC(=O)c2cc(S(=O)(=O)NCCC3=CCCCC3)ccc2F)c1	127	96	104	·
CCOc1ccc(CNC(=O)c2ccc3nc(CC)c(CC)nc3c2)cc1	135	103	112	·
Cn1c(-c2ccccc2)c(C(=O)CN2CCN(C(=O)c3ccco3)CC2)c2ccccc21	85	84	·	6
CC(C)(C)C(=O)N(Cc1ccccc1)Cc1ccccc1	103	101	103	-4
O=C(Cc1ccc(-c2ccccc2)cc1)NCCS(=O)(=O)N1CCN(c2cccc(Cl)c2)CC1	84	75	104	·
CC(C)(C)N(Cc1ccccc1)C(=O)CSc1nc2ccccc2o1	74	97	·	-22
COc1c(C(=O)NCc2ccc(Cl)cc2)csc1Cl	107	87	102	-3
Cn1nc(C(=O)NCc2ccc(Cl)cc2)c2c1CCN(S(=O)(=O)c1ccc(F)cc1)C2	·	·	107	-20

Taken from the listing, 24 compounds:
SMILES	Sa growth inh	Sa growth inh second temp	GIV Gai3 FP	HCMV NEC inh
CN(C)c1ccc(/C=C2\CCC/C(=C\c3ccccc3)C2=O)cc1	96	93	155	·
CCOC(=O)c1cnc2nc(NCc3ccc(OCC)cc3)[nH]n2c1=O	121	92	106	-10
COc1ccc(Oc2nc(-c3ccccc3)ns2)cc1	100	101	102	-18
Cc1cnc(NC(=O)CC(C)c2ccccc2)s1 (stereo not drawn)	113	80	·	-6
CC(OC(=O)C1CC2CCCC(C1)C2=O)C(=O)N1c2ccccc2CC1C (stereo not drawn)	98	85	·	-29
CCOC(=O)Cn1c(=O)n(C2CCCCC2)c2nc(-c3cccc(C)c3)nc(C(N)=O)c21	98	96	97	·
CC(=O)N1N=C(c2c(C)coc2C)CC1c1ccc(Cl)cc1Cl (stereo not drawn)	87	95	·	-29
N#Cc1c(OC(=O)c2ccco2)ccc(OC(=O)c2ccco2)c1C#N	84	83	106	-8
O=C(CN1C(=O)C2C3C=CC(C3)C2C1=O)Nc1nnc(C(F)(F)F)s1 (stereo not drawn)	110	90	·	-22
CCn1cc(C(=O)O)c(=O)c2cc(F)c(F)cc21	85	91	102	·
CCn1cc(C(=O)NCc2ccccc2)c(=O)c2cc(S(=O)(=O)N3CCc4ccccc4C3)ccc21	93	91	105	-26
Cc1nc(C)c(-c2csc(Nc3ccc(O)c(C(=O)O)c3)n2)s1	87	80	96	-65
Cc1ccc2c(N3CC4CCC(CC4)C3)cc(C(F)(F)F)nc2c1	107	85	101	-19
C=CCSc1nnc(-c2oc3nc(-c4ccccc4)cc(-c4ccccc4)c3c2N)n1C	85	53	106	-48
CCCOc1ccc(CNC(=O)Cn2cc3c(n2)-c2c(oc(C(=O)N4CCOCC4)c2C)CC3)cc1	102	93	109	·
Cc1ccc(-n2c(SCC(N)=O)nc3sc4c(c3c2=O)CCCCC4)cc1	·	·	107	-18
CCOC(=O)C1C(c2ccc(Br)cc2)C(C(=O)OCC)C(O)(C(F)(F)F)NC1(O)C(F)(F)F (stereo not drawn)	109	100	104	4
CN1/C(=C/C(=S)C(C)(C)C)Sc2ccccc21	70	99	·	-5
Cc1oc2ncnc(N3CCCCC3)c2c1C(=O)N1CCC(C(N)=O)(N2CCCCC2)CC1	·	·	102	-4
Cc1ccc(C)c(NC(=O)c2cc(S(=O)(=O)NCCC3=CCCCC3)ccc2F)c1	127	96	104	·
CCOc1ccc(CNC(=O)c2ccc3nc(CC)c(CC)nc3c2)cc1	135	103	112	·
Cn1c(-c2ccccc2)c(C(=O)CN2CCN(C(=O)c3ccco3)CC2)c2ccccc21	85	84	·	6
CC(C)(C)C(=O)N(Cc1ccccc1)Cc1ccccc1	103	101	103	-4
O=C(Cc1ccc(-c2ccccc2)cc1)NCCS(=O)(=O)N1CCN(c2cccc(Cl)c2)CC1	84	75	104	·

(list continues)
SMILES	Sa growth inh	Sa growth inh second temp	GIV Gai3 FP	HCMV NEC inh
CCOC(=O)c1c(S(=O)(=O)N2CCCC(C(=O)NCc3cccc(OC)c3)C2)c(C)n(C)c1C (stereo not drawn)	95	102	105	·
Fc1ccc(NCc2cccn2-c2nnc(N3CCOCC3)s2)cc1	99	85	109	·
O=C1N/C(=C/c2ccsc2)C(=O)N1Cc1ccccc1F	86	94	110	-18
O=C(CCn1ccc2cc(S(=O)(=O)N3CCCC3)ccc21)NCc1ccccc1Br	107	88	97	·
COc1cc(Cl)c(C)cc1NC(=O)c1cn(C2CCCC2)c(=O)c2c1c1ccccc1n2C	101	85	101	-19
COC(=O)Cn1c(=O)sc2ccccc21	103	82	·	-2
COc1cc(CN(C(=O)c2cccc(Cl)c2)c2ccccn2)cc(OC)c1OC	101	82	106	-18
O=C(CSc1nnc(-c2cccnc2)n1-c1ccccc1)NCc1ccccc1	116	88	101	·
CCc1ccc(NS(=O)(=O)c2ccc3[nH]cc(C(=O)NCCOC)c(=O)c3c2)cc1	105	95	110	10
O=C(c1cc2cccnc2n(Cc2ccc(F)cc2)c1=O)N1CCOCC1	·	·	106	4
CCCn1c(NC(=O)Nc2ccccc2)c2ccccc2nc1=O	103	78	98	-8
CCc1ccc2nc(N(Cc3cccnc3)C(=O)Cc3ccccc3)sc2c1	100	88	37*	·
O=c1[nH]ncc(NCCN2CCOCC2)c1Cl	92	104	100	-6
Cc1ccc(CCN2C(=O)c3ccccc3CCC2(C)C(=O)NCCC(C)C)cc1 (stereo not drawn)	·	·	101	-11
CCOC(=O)c1c(NC(=O)COC(=O)Cn2cnc3ccccc32)sc2c1CCC(C)C2 (stereo not drawn)	104	92	·	-4
CCOC(=O)C1=C(C)NC(=O)NC1c1cn(-c2ccccc2)nc1-c1ccc(Cl)cc1 (stereo not drawn)	·	·	111	-8
O=C(NC1CCCC1)c1ccc(Br)s1	121	98	98	-4
O=C(CSCCN1C(=O)c2ccccc2C1=O)NCc1ccc(F)cc1	69	94	·	-27
CN(C(=O)CSc1nnc(-c2ccc([N+](=O)[O-])cc2)o1)C1CCCCC1	96	78	96	-19
O=C1CN(C(=O)CSc2nnc(Nc3ccccc3F)s2)c2ccccc2N1	106	92	·	-1
Cc1nc(Nc2ccc(NS(=O)(=O)c3cccc(F)c3)cc2)cc(N(C)C)n1	·	·	100	-5
COc1ccc(Cn2c(=O)c3oc4ccccc4c3n(Cc3ccc(Cl)cc3)c2=O)cc1	97	99	103	·
COc1ccc2c(c1)C=C(C(=O)NCc1cccnc1)CO2	·	·	105	-45
O=c1[nH]cc(S(=O)(=O)N2CCc3ccccc32)c(=O)[nH]1	93	95	106	-11
CCC(=O)N1CCC2(CC1)Nc1cc(F)ccc1-n1cccc12	·	·	106	-10
CCOCCc1nnc(NC(=O)C(=O)c2cc(C)n(-c3ccc(C)c(C)c3)c2C)s1	98	52	102	-9
N#C/C(=C(/O)c1cc[n+](Cc2ccccc2)cc1)c1nc2ccccc2[nH]1	88	75	·	-114
O=C(CCc1nc(-c2cccnc2)no1)Nc1ccccc1F	·	·	102	5
CCOC(=O)N1CCN(c2c(F)cc3[nH]c(=S)[nH]c3c2Br)CC1	99	113	104	5
COC(=O)c1c(-c2ccc(C(C)(C)C)cc2)csc1NC(=O)C1C2CCC(O2)C1C(=O)O (stereo not drawn)	81	99	96	·
O=C(CCCn1c(=O)oc2ccccc21)N1CCCc2ccccc21	108	89	·	-12
COc1ccc(Cn2nnnc2C(c2ccccc2F)N(Cc2ccco2)CC2CCCO2)cc1 (stereo not drawn)	104	87	105	-5
CCN(C(=O)C1CCN(S(=O)(=O)c2cccc3nsnc23)CC1)c1ccc(C)c(C)c1	88	96	98	-35
O=C(O)CC(Cc1ccccc1)c1ccco1 (stereo not drawn)	118	94	96	-20
NC(=O)c1scc(-c2ccc(F)cc2)c1-n1cccc1	·	·	99	-19
CN(C)/N=C(\N)c1ccc(Cl)cc1	97	96	104	0
Cn1c(SCc2ccccc2)nnc1C1CCCN(C(=O)Cc2ccc3c(c2)OCO3)C1 (stereo not drawn)	107	73	102	-146
CCOc1ccc(C(=O)Nc2ccc3nc(SCC(=O)N(C)c4ccccc4)sc3c2)cc1	105	87	101	-21
Cc1ccc(C(=O)c2ccccc2C(=O)OCC(=O)c2ccc(F)cc2)cc1	110	93	·	-17
Cc1cc(Cl)ccc1OCCCC(=O)Nc1ccc(S(=O)(=O)Nc2ncccn2)cc1	108	71	98	·
Cc1ccc(NC(=O)Cn2c(=O)n(-c3ccccc3)c(=O)c3ccc(C(=O)NCc4ccc5c(c4)OCO5)cc32)c(C)c1	110	110	108	13
O=C(Cc1ccccc1)N1CCN(c2nc3cccnc3o2)CC1	·	·	100	-4
CCOc1ccc(CCNC(=O)c2nnc(Cc3ccc(Cl)cc3Cl)o2)cc1OCC	101	88	104	-8
CCCOC(=O)c1cc(-c2ccc(/C=C3\C(=O)NC(=O)C(C#N)=C3C)o2)ccc1Cl	79	49	101	-14
CC1Oc2ccccc2N(CC(=O)NC2CC2)C1=O (stereo not drawn)	82	92	100&100	-18
CC(C(=O)NCc1ccccc1)n1c2ccccc2c2cn[nH]c(=O)c21 (stereo not drawn)	94	86	108	-15
CCc1nccn1C(=O)CCCC(=O)O	68	96	106	·
N=c1c(S(=O)(=O)c2ccccc2)cc2c(=O)n3ccccc3nc2n1Cc1ccco1	108	84	106	·

From PubChem BioAssay
